Screens (PubChem BioAssay)
MT1-MMP act inh: blocks activation of human MT1-MMP | P50281 | HT1080 RFP-PRO-GFP cells, GFP/RFP ratio fluorescence, overnight; percent of plate control window, DMSO zero | GFP/RFP ratio change, % at 20 µM | hit rate 0.061% among 360,000 | AID 651647;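 active = GFP/RFP ratio change of at least 30% with cell ATP level not reduced by more than half and red fluorescence within 50% of control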; also: strong numbers were not always called active
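Assay system: HT1080 RFP-PRO-GFP cells. Benchmarks: DMSO vehicle wells and RFP-L50D-GFP reporter cell wells. Times: overnight cell settling, then overnight compound exposure, 37 °C, 5% CO2. Compound: 20 µM single dose, 1% DMSO. Read-out basis: GFP/RFP fluorescence ratio.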
UUG fidelity: alters start codon recognition fidelity in yeast; S. cerevisiae UUG-firefly luciferase reporter, luminescence/redox ratio; activity score, % at 18.7 µM; hit rate 0.13% among 350,000;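 active = replicate mean at a twofold rise or more, about +100% in these data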;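 also: firefly luciferase made from a UUG start codon reports start codon fidelity; reporter light over untreated wells divided by growth signal over untreated wells; some hits fall short of that in this replicate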
MT1-MMP act inh RFP: second read-out of MT1-MMP act inh, no call of its own (marks repeat the call); RFP signal change, %; measured here: RFP expression control read;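 0 = vehicle wells; hits needed this value within 50% of zero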
An asterisk follows results filed as active; & = joins results of further samples. Not all compounds are listed (hit frequency here may not be typical).

no.	canonical_smiles	MT1-MMP act inh RFP	MT1-MMP act inh	UUG fidelity
1	CCCn1c(N)c(N(CCOC)C(=O)c2ccc(S(=O)(=O)N3CCOCC3)cc2)c(=O)[nH]c1=O	2.9	1.1	2.7
2	CC1C(=O)N(Cc2cn(CCC3OCCCO3)nn2)CCS(=O)(=O)N1Cc1ccc(-c2ccncc2)cc1 (stereo unspecified)	0.8	-1.3	-3.0
3	Cn1nnnc1SCC(=O)c1c(N)n(C2CC2)c(=O)[nH]c1=O	2.8	-0.4	-5.9
4	OCc1ccccc1-c1cccc2nccn12	8.1	-12.2	-15.8
5	CCOC1=C2[C@H](c3ccccc3)N(S(=O)(=O)c3ccc(C)cc3)C[C@H]2n2c(=O)n(-c3ccccc3)c(=O)n2C1	1.7	7.9	-14.9
6	CNc1snc(C)c1C(=O)OCC(=O)c1cc(F)ccc1OC	-9.9	5.3	-3.2
7	O=C1C(=O)C(Cl)=C(Cl)C(Cl)=C1Cl	0.1	4.3	-30.6
8	CC(C)COC(=O)N1CCCCC1c1cc(C(=O)NCc2cccnc2)no1 (stereo unspecified)	2.3	4.0	-11.2

Limited to MT1-MMP act inh RFP and UUG fidelity, for some of the entries so far:
item	compound	MT1-MMP act inh RFP	UUG fidelity
6	CNc1snc(C)c1C(=O)OCC(=O)c1cc(F)ccc1OC	-9.9	-3.2
4	OCc1ccccc1-c1cccc2nccn12	8.1	-15.8
1	CCCn1c(N)c(N(CCOC)C(=O)c2ccc(S(=O)(=O)N3CCOCC3)cc2)c(=O)[nH]c1=O	2.9	2.7
7	O=C1C(=O)C(Cl)=C(Cl)C(Cl)=C1Cl	0.1	-30.6

Returning to the listing, repeating the five entries before the break.
no.	canonical_smiles	MT1-MMP act inh RFP	MT1-MMP act inh	UUG fidelity
4	OCc1ccccc1-c1cccc2nccn12	8.1	-12.2	-15.8
5	CCOC1=C2[C@H](c3ccccc3)N(S(=O)(=O)c3ccc(C)cc3)C[C@H]2n2c(=O)n(-c3ccccc3)c(=O)n2C1	1.7	7.9	-14.9
6	CNc1snc(C)c1C(=O)OCC(=O)c1cc(F)ccc1OC	-9.9	5.3	-3.2
7	O=C1C(=O)C(Cl)=C(Cl)C(Cl)=C1Cl	0.1	4.3	-30.6
8	CC(C)COC(=O)N1CCCCC1c1cc(C(=O)NCc2cccnc2)no1 (stereo unspecified)	2.3	4.0	-11.2
9	CC(=O)Nc1cccc(-c2ccnc3c2CC(C(=O)Nc2cccc(OC(F)(F)F)c2)O3)c1 (stereo unspecified)	-8.0	8.0	-10.4
10	CC(C)(C)OC(=O)N1CCc2onc(-c3ccccc3F)c2C1=O	-0.1	7.6	-2.5
11	CCOc1ccc(NC(=O)CN(C)C(=O)c2ccccc2Cc2ccccc2)cc1OCC	-5.8	-0.9	16.9
12	COCCNC(=O)C1(C)CCCN(Cc2csc(-c3ccc(Cl)cc3)n2)C1 (stereo unspecified)	-2.9	-0.9	-4.4
13	CC(C)N(C(=O)CSc1ccc(S(=O)(=O)N2CCCCC2)cn1)c1ccccc1	-6.1	-6.3	-6.6
14	O=C(NNC(=O)C(c1ccccc1)c1ccccc1)c1ccccc1O	3.6	4.2	-9.7
15	CCCN(Cc1nnc(-c2cccs2)o1)C(=O)CN1C(=O)NC2(CCC(C)CC2)C1=O (stereo unspecified)	-1.4	-0.3	-8.3
16	Cc1c(C(=O)N2CCN(C3CCS(=O)(=O)C3)CC2)oc2c(F)cccc12 (stereo unspecified)	4.0	1.2	-2.2
17	Oc1ccc(Cl)cc1Sc1cc(Cl)ccc1O	-25.3	2.0	-0.8
18	COCCNC(=O)C1(C)CCN(C(=O)c2cccnc2Oc2ccccc2)C1 (stereo unspecified)	2.1	2.8	-0.4
19	Cc1ccc(C)c(OCCC(=O)OCc2csc(CC(=O)Nc3ccccc3C)n2)c1	1.2	-2.3	-11.4
20	COc1ccc(-c2c(C#N)cnc(C)c2C)c(O)c1OC	2.7	1.8	-11.1
21	CCCN(CC(=O)Nc1ccccc1OC)C(=O)CCC(=O)c1ccc(Cl)s1	-2.2	-0.5	27.8
22	CN(CC(=O)Nc1cccc(F)c1)CC(=O)N(C)CC(=O)Nc1ccccc1Br	1.2	-1.7	-0.2
23	CC(=O)NC12CC3CC(C1)CC(C(=O)N1CCN(S(=O)(=O)c4cccs4)CC1)(C3)C2	8.6	0.9	1.3
24	CC(=O)Nc1ccc(S(=O)(=O)NCCC(=O)OCC(=O)c2cccc(Br)c2)cc1	2.7	-6.4	-14.9
25	CN1CCN(C(c2ccc(F)cc2)c2ccc3cccnc3c2O)CC1 (stereo unspecified)	4.1	2.3	-13.5
26	CC1=C(C(=O)N(C(C)C)C(C)C)CC(CC(=O)NC2CCCCC2)C(=O)N1CCCN1CCCC1=O (stereo unspecified)	1.9	2.0	-8.0
27	CC(C)n1nnnc1SCC(=O)c1c(N)n(C2CC2)c(=O)[nH]c1=O	0.5	0.7	-6.7
28	NS(=O)(=O)c1ccc(NC(=O)c2ccc(Cl)c(S(=O)(=O)NCc3ccco3)c2)cc1	-4.0	7.8	-10.5
29	Cc1cn([C@H]2C[C@H](O)[C@@H](/C=C/C(=O)NCCc3cccs3)O2)c(=O)[nH]c1=O	3.6	3.3	-6.9
30	COc1ccc(C(CNC(=O)CCNC(=O)c2ccccc2Cl)N2CCCC2)cc1 (stereo unspecified)	1.0	-2.3	-13.7
31	CN1CCN(S(=O)(=O)c2cccc(C(=O)N(C)Cc3c(F)cccc3Cl)c2)CC1	2.6	-0.8	-8.0
32	CCN(Cc1ccccc1)N=Nc1ccccc1	-2.2	-0.7	1.5
33	CCOc1ccc(NC(=O)COc2ccc(N3CC(C(N)=O)CC3=O)cc2)cc1 (stereo unspecified)	0.2	-0.2	-30.9
34	COCOCCn1cc(CN2CCS(=O)(=O)N(Cc3ccc(-c4ccc(Cl)c(Cl)c4)cc3)C(C(C)C)C2=O)nn1 (stereo unspecified)	-30.1	3.6	-10.3
35	CCC1NC(=O)c2cccnc2-n2c1nc1cc(F)ccc1c2=O (stereo unspecified)	2.2	0.4	-20.7
36	O=C(c1cccc(S(=O)(=O)N2CCOCC2)c1)N1CCN(C/C=C/c2ccccc2)CC1	-1.1	-1.2	-0.1
37	CC(c1ccccc1)N(C)CC(=O)NC(=O)NCCC1=CCCCC1 (stereo unspecified)	-6.2	-0.4	-6.2
38	CCN(CC(=O)Nc1c(F)cccc1F)C(=O)c1ccc(S(=O)(=O)N2CCC(C)CC2)cc1	-7.0	4.1	11.1
39	CS(=O)(=O)c1ccc(Cl)c(C(=O)OCC(=O)NC2CCCCCCC2)c1	3.9	-0.7	-16.4
40	Cc1cc2nc(-c3ccc(Cl)cc3)c(Cc3cccc(F)c3)n2c(C)c1Br	-2.7	2.7	-15.3
41	Cc1ccc(C)c(NC(=O)CN(C)C(=O)c2ccc3c(=O)n4c(nc3c2)CCC4)c1	5.3	0.2	10.8
42	COc1cccc(CN(C)C(=O)c2ccc(OCC(=O)N3CCOCC3)c(OC)c2)c1	3.2	1.1	-4.5
43	Cc1cc(Cl)ccc1C(O)c1ncc(-c2ccc(F)cc2)[nH]1 (stereo unspecified)	-4.0	5.0	-13.6
44	COc1cc(OC)c2c(-c3cccc(-c4ccc(C(C)=O)cc4)c3)cc(=O)oc2c1	-13.6	-1.7	-16.0
45	CC(NC(=O)CN1C(=O)NC2(CCCCC2C)C1=O)c1ccccc1 (stereo unspecified)	2.8	1.2	-22.7
46	Cc1ccc(OCC(=O)Nc2ccc3c(c2)ncn3C)cc1	4.4	1.9	-23.8
47	CC(=O)OCC(O)C1(O)CCC2C3CCC4=CC(=O)CCC4(C)C3C(O)CC21C (stereo unspecified)	4.4	2.5	-7.0
48	O=C(Nc1ccc2c(c1)Cc1cc([N+](=O)[O-])ccc1-2)C(F)(F)F	-0.2	-89.3	8.4
49	O=C(Cn1[nH]c(=O)c2ccccc2c1=O)N1CCN(S(=O)(=O)c2ccc(Cl)cc2)CC1	-0.8	0.0	-6.1
50	CCCn1c(N)c(C(=O)CSc2nnc(-c3ccoc3C)n2C)c(=O)n(C)c1=O	-0.8	0.0	-18.2
51	O=C(CN1C(=O)NC(c2ccccc2)(c2ccccc2)C1=O)N1CCN(c2ccc(F)cc2)CC1	-1.8	2.8	1.4
52	Cc1ccc(CNC(=O)CC[C@H]2O[C@@H](n3cc(C)c(=O)[nH]c3=O)C[C@@H]2O)o1	7.4	2.4	-3.0
53	Cc1cc(NC(=O)C(C)Sc2nnc(NCc3ccco3)s2)no1 (stereo unspecified)	1.2	-0.5	2.0
54	NC1=NC(=O)C(c2ccccc2)(c2ccccc2)S1	-1.9	0.3	4.0
55	CCN(CC(=O)Nc1c(F)cccc1F)C(=O)c1ccc(=O)n(C)n1	1.4	-3.6	-12.2
56	NS(=O)(=O)c1cccc(NC(=O)COC(=O)Cc2n[nH]c(=O)c3ccccc23)c1	0.4	-5.5	-9.3
57	CN(CC(=O)Nc1cccc(S(=O)(=O)NC2=NCCC2)c1)Cc1ccccc1Cl	-2.5	-2.5	-16.3
58	CC(C)c1nc(SCC(=O)N2CCCCC2)c2c(=O)n(C)c(=O)n(C)c2n1	-3.3	-3.5	-35.0
59	COc1ccc(N(Cc2ccccc2)S(=O)(=O)c2cccc(C(=O)NCC3CCCO3)c2)cc1 (stereo unspecified)	-2.1	-0.7	4.7
60	Cc1cc(C(O)c2ncc(-c3ccccc3)[nH]2)ccc1F (stereo unspecified)	-2.6	1.9	-22.3
61	O=C1C2C3C=CC(O3)C2C(=O)N1N=Cc1cccc2ccccc12 (stereo unspecified)	2.2	0.2	-16.1
62	Cc1noc(C)c1NC(=O)N(C)C[C@H]1OCc2cnnn2CCCC(=O)N([C@H](C)CO)C[C@H]1C	5.1	1.5	-1.6&8.8
63	Cc1ccc(S(=O)(=O)N(C)C[C@@H]2OCc3cnnn3CCCC(=O)N([C@H](C)CO)C[C@@H]2C)cc1	9.6	6.1	-16.7&4.3
64	C=CCn1c(=S)[nH]c2cc(C(=O)NCCc3ccc(S(N)(=O)=O)cc3)ccc2c1=O	3.4	-3.9	-23.9

(further entries)
no.	canonical_smiles	MT1-MMP act inh RFP	MT1-MMP act inh	UUG fidelity
65	COc1ccc(OC)c(CN2CCN(C(=O)c3cccc(S(=O)(=O)N(C)c4ccccc4)c3)CC2)c1	-2.9	-2.4	-3.2
66	COc1ccccc1-n1nnnc1SCC(=O)N(C)C1CCS(=O)(=O)C1 (stereo unspecified)	2.8	7.1	-20.2
67	CCN1C(=O)[C@@H]2[C@@H]3CN(S(=O)(=O)c4ccc(C)cc4)[C@@H](c4ccccc4)[C@@H]3C(=O)C[C@@H]2C1=O	6.4	3.9	6.3
68	CC(=O)C1=CCC(c2ccc(Cl)c(Cl)c2)N(S(=O)(=O)c2ccc(C)cc2)C1 (stereo unspecified)	-8.2	-2.6	-18.6
69	COc1ccc(NC(=O)C[C@@H]2C(=O)N(Cc3ccccc3)CC2(C)C)cc1	1.0	5.8	4.4
70	COC(=O)c1c(NC(=O)CN(C)CC(=O)Nc2ccc(C)cc2)sc2c1CCC(C)C2 (stereo unspecified)	-5.1	-5.9	-7.4
71	CCN(Cc1ccccc1)c1ccccc1	6.8	-1.9	-19.4
72	O=C(NCC(=O)N1CCN(c2ccc(C(F)(F)F)cn2)CC1)c1ccc(Br)o1	-15.8	3.1	-5.4

Numbers 65–69, quoted:
no.	canonical_smiles	MT1-MMP act inh RFP	MT1-MMP act inh	UUG fidelity
65	COc1ccc(OC)c(CN2CCN(C(=O)c3cccc(S(=O)(=O)N(C)c4ccccc4)c3)CC2)c1	-2.9	-2.4	-3.2
66	COc1ccccc1-n1nnnc1SCC(=O)N(C)C1CCS(=O)(=O)C1 (stereo unspecified)	2.8	7.1	-20.2
67	CCN1C(=O)[C@@H]2[C@@H]3CN(S(=O)(=O)c4ccc(C)cc4)[C@@H](c4ccccc4)[C@@H]3C(=O)C[C@@H]2C1=O	6.4	3.9	6.3
68	CC(=O)C1=CCC(c2ccc(Cl)c(Cl)c2)N(S(=O)(=O)c2ccc(C)cc2)C1 (stereo unspecified)	-8.2	-2.6	-18.6
69	COc1ccc(NC(=O)C[C@@H]2C(=O)N(Cc3ccccc3)CC2(C)C)cc1	1.0	5.8	4.4

Next entries follow:
no.	canonical_smiles	MT1-MMP act inh RFP	MT1-MMP act inh	UUG fidelity
73	Cc1ccc(OCC(=O)N2CCN(S(=O)(=O)c3ccc4c(c3)OCCO4)CC2)c(C)c1	0.1	6.8	0.2
74	CC(=NNc1ccc([N+](=O)[O-])cn1)c1ccccc1	3.1	1.6	-15.7
75	CCc1cc(-c2nnn(CCC3COCCO3)c2CC)ccc1-c1cn(Cc2ccc3ccccc3c2)nn1 (stereo unspecified)	-29.3	2.0	-19.3
76	CCOC(=O)c1c(-c2cc(OC)c(OC)c(OC)c2)csc1NC(=O)c1ccccc1	-8.7	-0.7	-8.1
77	CC(C)N(C(=O)[C@H]1C[C@H](CC(=O)NCCc2ccccn2)C(=O)N2CCc3c([nH]c4cc(-c5ccco5)ccc34)[C@]12C)C(C)C	-5.9	-2.8	-9.3
78	C[C@H](CO)N1C[C@H](C)[C@@H](CN(C)S(=O)(=O)c2cccc(F)c2)OCc2cnnn2CCCC1=O	1.2	2.6	-22.1&-15.7
79	O=C1NC(c2ccccc2)Cc2ccncc21 (stereo unspecified)	-3.3	0.3	-14.8
80	COc1ccc(C)cc1NS(=O)(=O)c1ccccc1	2.5	2.4	-22.5
81	COc1ccc(CNCCS(=O)(=O)NC2CCCC2)cc1	4.9	6.3	-15.0
82	CC(Oc1ccccc1F)c1nnc(SCC(=O)Nc2ccc(N3CCOCC3)cc2)o1 (stereo unspecified)	4.1	1.5	-8.2
